# HIV TAR-Tat: TAR RNA-Tat peptide displacers, HIV-1, primary screen, biochemical, FRET, FAM/TAMRA-labeled Tat; HIV-1 TAR RNA, Tat peptide displacement FRET; hits give high values; z-score (concentration not given with the values); 100,000 compounds, 0.6% hits; AID 1259389, 2018;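 further: score is relative to mean and SD of negative controls; some compounds called inactive have numbers as strong as hits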
# CDC25B CDK2 inh: primary biochemical HTRF screen for blockers of M-phase inducer phosphatase 2 binding to CDK2/cyclin A; P30305+P24941; HTRF CDC25B-CDK2/CyclinA binding, anti-His/anti-Flag; hits give high values; z-score (no concentration beside the values); 94,000 compounds, 0.72% hits; AID 1259370, 2018;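 further: score is relative to mean and SD of negative controls; strong numbers were not always called active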
# Active calls of the source: *; · = no result given; & = joins results of further samples.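 How the source made its calls: active means z-score from 3 up in half or more of its runs; inactive means the rest.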
SMILES,HIV TAR-Tat,CDC25B CDK2 inh
S=C1NC(c2ccccc2)=CC(c2ccsc2)S1 (centres undefined),·,-0.6
COc1ccc(OC)c(NS(=O)(=O)c2ccc(C(=O)N(C)C)s2)c1,1.5,·
CC(=O)Nc1nc(C2COc3ccccc3O2)cs1 (centres undefined),1.1,-0.67
COC(=O)c1ccc(S(=O)(=O)NC(C)(C)C)n1C,·,-0.72
O=S(=O)(c1ccc(F)cc1)N(Cc1nc(-c2ccc(Cl)cc2)no1)C1CCCCC1,1.1,0.6
O=C(O)c1ccccc1C(=O)c1ccc(Oc2ccccc2)cc1,2.8,-2.6
O=c1c2c(-c3ccc(Cl)cc3)noc2ncn1Cc1c(F)cccc1Cl,0.06,·
O=S(=O)(c1ccc(Cl)cc1)N(Cc1ccco1)CC(O)Cn1c2ccccc2c2ccccc21 (centres undefined),-1.9,0.46
Cc1nc2sc(C(c3cccc(Cl)c3)N3CCN(c4ccccc4)CC3)c(O)n2n1 (centres undefined),·,-0.28
Cc1c(C(=O)N2CCN(c3ccccc3)CC2)sc2nc[nH]c(=O)c12,-0.27,·
CC1(C)CC(=O)C2=C(C1)OC(N)=C(C#N)C2c1c(F)c(F)c(F)c(F)c1F (centres undefined),·,-0.65
Cc1nnc(N2C(=O)c3oc4ccccc4c(=O)c3C2c2ccccc2)s1 (centres undefined),-0.47,-0.22
O=C(O)c1cccc2c1NC(c1cccc(Cl)c1)C1C3CCC(C3)C21 (centres undefined),6.2,-0.89
COc1ccc(NC(=O)CC2C(=O)N(c3ccc(F)cc3)C(=S)N2Cc2ccco2)cc1 (centres undefined),·,-2.3
Cc1ccc(NS(=O)(=O)c2ccc(-c3cc(C)no3)cc2)c(C)c1,-3.5,·
CCOc1ccc(-c2cc3cc(OC)c(OC)cc3c(C)n2)cc1,2,-3.1
Fc1ccc(-c2nc(-c3ccc4c(c3)nnn4C3CCCC3)no2)cc1,-0.02,·
CC1CCN(C(=O)Cn2cnc3c(oc4ccccc43)c2=O)CC1,0.17,·
Cc1nnc2c(SC3CCCCC3)nc3ccccc3n12,0.95,-1.4
COc1ccccc1N(CC(O)CN1C(=O)NC(C)(C)C1=O)S(=O)(=O)c1ccccc1 (centres undefined),·,0.36
COc1ccc(C(=O)OC2=CN(Cc3ccccc3)S(=O)(=O)c3ccccc32)cc1,-0.73,-0.05
O=C1C(Oc2ccccc2)C(c2ccc3c(c2)OCO3)N1c1cccc(Cl)c1 (centres undefined),·,-1.1
Cc1ccc2nc(-c3ccsc3)cn2c1,·,-1.3
Cc1ccc(-c2noc(C3CCCN(S(=O)(=O)c4ccc5c(c4)CCCC5)C3)n2)cc1 (centres undefined),3,·
COc1ccc(OC)c2c1CC(C)(C)n1c(-c3ccccc3)nnc1-2,·,-0.5
SMILES,HIV TAR-Tat,CDC25B CDK2 inh
Cc1ccc2oc3c(c(=O)c2c1)C(c1ccc(F)cc1)N(CCCN(C)C)C3=O (centres undefined),-0.13,-1.4
CCOC(=O)c1sc2nc(C)nc(N3CCN(C)CC3)c2c1C,0.39,-2.7
COc1ccccc1-c1noc2ncnc(NCC3CCCO3)c12 (centres undefined),2.5,·
CC(=O)NCCCCCCNC(C)=O,-0.3,·
O=C(CN1C(=O)CSc2cccn2-c2ccccc21)NC1CCS(=O)(=O)C1 (centres undefined),0.68,·
CCCN(Cc1ccccc1)C(=S)Nc1ccc2nc3c4ccccc4c4ccccc4c3nc2c1,·,2.8
CCOC(=O)C(C(=O)C(F)(F)F)C(NC(N)=S)c1ccsc1 (centres undefined),·,-1.4
O=C(Cn1c(=O)c2cccn2c2ccccc21)NCCCN1CCc2ccccc2C1,1.8,·
CC1=CC(C)C2(CO)COC(c3ccc4c(c3)OCO4)C1C2C (centres undefined),1.5,-2.1
COc1ccc(OC)c(C2C(C#N)=C(N)Oc3n[nH]c(C(C)(C)C)c32)c1 (centres undefined),1.6,-0.66
CCOc1cc(C2=NS(=O)(=O)c3ccccc3N2)cc(OCC)c1OCC,·,-3.1
Cc1nn(C(C)C(=O)NCCCN(C)C2CCCCC2)c(=O)c2cc3occc3n12 (centres undefined),0.6,-0.83
Cc1ccc(-c2onc3ccc(Br)cc23)cc1,-1.1,2.5
C=CCN(Cc1nc(-c2ccc(C)cc2)no1)S(=O)(=O)c1ccc(C)cc1,0.34,-1.6
COc1ccc(-c2csc3ncnc(NCCc4cc(OC)ccc4OC)c23)cc1,0.04,·
Cc1c(C(=O)NCC2CCCO2)sc2nc3n(c(=O)c12)CCCCC3 (centres undefined),0.91,·
Cn1ncc2c(NCCc3cccs3)nc(N3CCCC3)nc21,0.15,·
CCC1C(=O)C(C)(C)C(=O)OC1c1ccc(Cl)cc1 (centres undefined),0.4,0.15
COc1ccc(S(=O)(=O)N2CCCC2c2cccs2)cc1OC (centres undefined),0.97,-2.2
Clc1ccc(-c2csc(NCc3ccccc3)n2)cc1,1.9,3
Cc1ccc(C2=NC(c3cccs3)=Nc3ccc(C(C)C)cc3N2)o1,1.9,-0.94
COc1ccc2c(C(F)(F)F)cc(=O)oc2c1,·,-0.79
O=C(NCCCN1CCCC1)c1cc2c(s1)-c1ccsc1CC2,-1.8,·
O=C(NC1CCCCC1)c1ccc2c(=O)nc3c(-c4ccc(Cl)cc4)n[nH]n3c2c1,0.02,·
Cc1ccc2c(c1)-c1cc(C)nn1C(c1cc(C)ccc1O)N2 (centres undefined),2.2,1.4
SMILES,HIV TAR-Tat,CDC25B CDK2 inh
COc1ccc(OC)c(C2C3=C(CC(C)(C)CC3=O)OC3=C2C(=O)CC(C)(C)C3)c1,·,-0.96
Cc1cc(=O)n(CC(=O)N2CCOCC2)c2c1c(C)nn2C,0.37,·
NC[C@@H]1O[C@H](O[C@H]2[C@@H](O)[C@H](O[C@@H]3[C@@H](O)[C@H](N)C[C@H](N)[C@H]3O[C@@H]3O[C@H](CO)[C@@H](O)C[C@H]3N)O[C@@H]2CO)[C@H](N)[C@@H](O)[C@@H]1O[C@H]1O[C@H](CO)[C@@H](O)[C@H](O)[C@@H]1O,1.7,·
CCCN(CCC)S(=O)(=O)c1ccc2c(c1)C(C)(C)C(=O)N2C,2.2,·
CC(C)C12CN3CC(C(C)C)(CN(C1)C3c1ccc(F)cc1)C2=O (centres undefined),·,-1.2
Cn1c(=O)c2sccc2n2c(CCCC(=O)Nc3ccc(F)cc3)nnc12,-1,·
CCCCn1c(NCc2ccccc2O)nc2ccccc21,·,-1.5
CCCOc1ccc(-c2cc(OCC)c3c(C)oc(C)c3c(=O)c2)cc1,-0.05,-0.73
COc1ccccc1-c1nc2c(c(=O)[nH]1)Cc1c(ccc3ccccc13)O2,1,-1.6
COc1ccc(OC)c(S(=O)(=O)N2CCc3ccccc3C2)c1,0.99,0.02
O=C(CCCc1nc(-c2ccco2)no1)Nc1ccccc1Cl,1.7,-1.9
Cc1c(C(=O)N2CCC(c3nc4ccccc4o3)CC2)oc2cc(Br)ccc12,1.6,-1.2
CCOC(=O)CNC(=O)NCc1cc(C)n(-c2ccc(Cl)cc2)c1C,-1.3,·
CC(=O)Nc1ccc(OC(F)(F)F)cc1Cl,·,-2.2
CCN(CCO)CCCC(C)Nc1ccnc2cc(Cl)ccc12 (centres undefined),1.3&0.51,·
Cc1cccc(C)c1N(C)C(=O)[C@@H]1[C@H]2C[C@H]3[C@@H]1C(=O)O[C@H]3C2,1.4,0.55
COC(=O)c1ccc(C)c(NC(=O)c2ccncc2)c1,·,-2.9
N#Cc1ccc(Oc2ccc(C(F)(F)F)cc2NC(=O)C(F)(F)F)cc1,·,-0.16
Cc1nn(C(=O)c2cc(C)n(-c3ccccc3)n2)c(C)c1Br,·,-3.1
CCOC(=O)c1noc2ncnc(NC(C)C)c12,-0.12,·
CCCSCCCNC(=O)C1CCCN(c2nnc(N3CCCC3=O)s2)C1 (centres undefined),0.61,-2.3
CCOC(=O)c1c(NC(=O)c2cc(=O)c3cc(Cl)ccc3o2)sc2c1CCC2,2.2,-2.2
c1cncc(Cn2cccc2)c1,·,-1.3
CC1(C)Cc2c(C#N)c(SCCOc3ccccc3)nc(N3CCOCC3)c2CO1,0.27,0.43
CC(CC(=O)NCCc1cccs1)CC1=NS(=O)(=O)c2ccccc2N1 (centres undefined),0.77,·

# A different layout for 4 compounds above.
CCN(CCO)CCCC(C)Nc1ccnc2cc(Cl)ccc12 (centres undefined)
  HIV TAR-Tat: 1.3&0.51	CDC25B CDK2 inh: ·
Cc1c(C(=O)N2CCC(c3nc4ccccc4o3)CC2)oc2cc(Br)ccc12
  HIV TAR-Tat: 1.6	CDC25B CDK2 inh: -1.2
CCCCn1c(NCc2ccccc2O)nc2ccccc21
  HIV TAR-Tat: ·	CDC25B CDK2 inh: -1.5
COc1ccccc1-c1nc2c(c(=O)[nH]1)Cc1c(ccc3ccccc13)O2
  HIV TAR-Tat: 1	CDC25B CDK2 inh: -1.6

# Three entries from above, arranged by heavy-atom count, rising.
SMILES,HIV TAR-Tat,CDC25B CDK2 inh
O=C(CCCc1nc(-c2ccco2)no1)Nc1ccccc1Cl,1.7,-1.9
COc1ccccc1-c1nc2c(c(=O)[nH]1)Cc1c(ccc3ccccc13)O2,1,-1.6
CCOC(=O)c1c(NC(=O)c2cc(=O)c3cc(Cl)ccc3o2)sc2c1CCC2,2.2,-2.2

# Further structures.
SMILES,HIV TAR-Tat,CDC25B CDK2 inh
CS(=O)(=O)N1CCC(Cc2ccccc2)CC1,1.5,-0.75
O=C1CC2(CCCC2)C(=O)N1CCNc1nccc(C(F)(F)F)n1,·,-1.4
O=C(Nc1ccc2c(c1)OCCO2)N1CCN(c2nc3cc(F)ccc3n3cccc23)CC1,-0.07,·
CCOc1ccccc1N(C)C(=O)c1nn(C)c2c1CSc1ccccc1-2,2.1,-1.4
COc1ccccc1-n1nnc(-c2nc(-c3ccccc3C)no2)c1N,-0.23,·
CCOC(=O)NC(NCCc1cc2ccccc2[nH]1)(C(F)(F)F)C(F)(F)F,·,-1.2
O=C(NC1Cc2ccccc2C1)C1CC1,·,-1.5
CCN(CC)S(=O)(=O)c1ccc2c(c1)N(CC(=O)NCCN1C(C)CCCC1C)C(=O)CS2 (centres undefined),-0.08,·
Cc1cc(C)n(Cc2n[nH]c(=S)n2Cc2ccccc2)n1,·,-1
CCCC(=O)Nc1nnc(SCc2cc(=O)n3nc(CC(C)C)sc3n2)s1,0.07,·
CCc1nc2nc(C)cc(Nc3cc(C)cc(C)c3)n2n1,-0.38,-0.58
COC(=O)c1cc(=O)nc2sccn12,-0.14,-0.76
COc1ccccc1Nc1nc(NCC(C)C)nc(N)c1[N+](=O)[O-],0.88,·
CCc1ccc(OC(=O)CSc2nnc(-c3cccs3)o2)cc1,-0.41,-0.01
O=C(Nc1ccc(F)cc1)C1CCCN(S(=O)(=O)c2ccc3[nH]c(=O)oc3c2)C1 (centres undefined),1.2,·
COc1ccc(C(C)=O)cc1Oc1ccc(C)cc1,·,-1.4
O=C(c1ccco1)N1CCN(C(=O)c2cc(-c3ccc(F)cc3)no2)CC1,1.9,·
COc1ccc(-c2cc(C(F)F)n3ncc(C(=O)N(C)C4CCCCC4)c3n2)cc1,-0.62,-0.47
Cc1cc(C)cc(Nc2cc(-n3nc(C)cc3C)ncn2)c1,-0.37,·
CCOC(=O)c1c(C)oc2ncnc(NC3CCCCC3)c12,-2.1,·
COc1ccc(OCc2nc(C#N)c(NCc3ccc4c(c3)OCO4)o2)cc1,0.79,-0.17
CN1C(C(=O)N2CCN(C(=O)c3ccco3)CC2)=CC(c2ccco2)=NS1(=O)=O,2.8,-0.82
Cc1c(N2CCN(S(=O)(=O)c3ccccc3)CC2)c(=O)n(CC(C)C)c(=O)n1-c1ccccc1,0.46,·
COC(=O)c1c(NC(=O)CSc2nc3c(c(=O)[nH]2)CCC3)sc2c1CCC(C)C2 (centres undefined),1.3,-0.12
NS(=O)(=O)c1ccc(CCNS(=O)(=O)c2ccc(Cl)cc2)cc1,1.2,0.26

# Of the compounds above, these contain a COOH group:
SMILES,HIV TAR-Tat,CDC25B CDK2 inh
O=C(O)c1ccccc1C(=O)c1ccc(Oc2ccccc2)cc1,2.8,-2.6
O=C(O)c1cccc2c1NC(c1cccc(Cl)c1)C1C3CCC(C3)C21 (centres undefined),6.2,-0.89

# Further compounds
SMILES,HIV TAR-Tat,CDC25B CDK2 inh
COC(=O)CCSc1ccc(C(=O)OC)cc1N,1.4,1.6
COC(=O)C(C)C1Sc2ccccc2N(Cc2ccccc2Cl)C1=O (centres undefined),·,0
CC1=C(C(=O)OC2CCCCC2)C(c2ccc(C(C)C)cc2)n2nnnc2N1 (centres undefined),-0.01,-0.87
Cc1c(NC(=O)C2CCCCC2C(=O)O)c(=O)n(-c2ccccc2)n1C (centres undefined),0.53,-0.63
Cc1nn(-c2ccccc2)c2[nH]c(=O)cc(C(F)(F)F)c12,0.94,·
O=C(NC1CCCCC1)c1c(O)c2c([nH]c1=O)CCCC2,1.9,·
Nc1cc(-c2ccc(Cl)cc2)nn1S(=O)(=O)c1ccccc1,2,0.79
CCCCSc1nc(-c2ccccc2)nc2c1Cc1c(CO)cnc(C)c1O2,-0.38,·
O=C(O)c1nn(-c2ccc(Cl)cc2)ccc1=O,0.38,-0.72
O=C(Nc1nnc(COc2ccccc2Cl)s1)C12CC3CC(CC(C3)C1)C2,·,-0.57
CCCCC12CN3CC(C)(CN(C1)C3c1ccc(Br)cc1)C2=O (centres undefined),1,0.74
Cn1c(C(=O)N2CCC(C(=O)N3CCOCC3)CC2)cc2sccc21,·,2.5
CC(C)C1Cc2c(sc3nc(SCC(=O)O)n(Cc4ccccc4)c(=O)c23)CO1 (centres undefined),·,2.1
O=S(=O)(c1ccc(-c2nnc(C3CCC3)o2)s1)N1CCc2ccccc2C1,0.85,·
CCn1cc(C2=NOC(C(=O)Nc3cc(C)on3)C2)c(C)n1 (centres undefined),0.66,0.55
COc1cc(C#N)c2ccc3ccccc3c2c1,·,0.29
Cc1ccc(Nc2ncnc3sc(C)cc23)c(C)c1,·,-1.5

# Source: PubChem BioAssay (Center for Chemical Genomics, University of Michigan)

# Not a hit list. About 0.94% of those tested had a hit in this group.
